Screening results as filed in PubChem.
hNpr1 antagonist: human Npr1 receptor antagonism | AID 1347048 | Potency, µM (titrated, usually from 46.3 µM), inactives show at the top dose activity change, negative = inhibition, usual class: inhibitors | P16066 | HEK293 hNpr1 GloSensor cGMP, ANP-stimulated luminescence | 1.6% of 76,000 active; active = well fitted inhibition curve with a large enough effect; inconclusive = small, poorly fitted or top-dose-only effect; inactive = no such curve, though single readings can be large or run the other way;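 also: nearly all actives have a fitted effect of over 60% in size; nearly all hits also lower the signal before the agonist is added; a reference antagonist and vehicle were the controls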
Target sequence (P16066 whole entry, looked up): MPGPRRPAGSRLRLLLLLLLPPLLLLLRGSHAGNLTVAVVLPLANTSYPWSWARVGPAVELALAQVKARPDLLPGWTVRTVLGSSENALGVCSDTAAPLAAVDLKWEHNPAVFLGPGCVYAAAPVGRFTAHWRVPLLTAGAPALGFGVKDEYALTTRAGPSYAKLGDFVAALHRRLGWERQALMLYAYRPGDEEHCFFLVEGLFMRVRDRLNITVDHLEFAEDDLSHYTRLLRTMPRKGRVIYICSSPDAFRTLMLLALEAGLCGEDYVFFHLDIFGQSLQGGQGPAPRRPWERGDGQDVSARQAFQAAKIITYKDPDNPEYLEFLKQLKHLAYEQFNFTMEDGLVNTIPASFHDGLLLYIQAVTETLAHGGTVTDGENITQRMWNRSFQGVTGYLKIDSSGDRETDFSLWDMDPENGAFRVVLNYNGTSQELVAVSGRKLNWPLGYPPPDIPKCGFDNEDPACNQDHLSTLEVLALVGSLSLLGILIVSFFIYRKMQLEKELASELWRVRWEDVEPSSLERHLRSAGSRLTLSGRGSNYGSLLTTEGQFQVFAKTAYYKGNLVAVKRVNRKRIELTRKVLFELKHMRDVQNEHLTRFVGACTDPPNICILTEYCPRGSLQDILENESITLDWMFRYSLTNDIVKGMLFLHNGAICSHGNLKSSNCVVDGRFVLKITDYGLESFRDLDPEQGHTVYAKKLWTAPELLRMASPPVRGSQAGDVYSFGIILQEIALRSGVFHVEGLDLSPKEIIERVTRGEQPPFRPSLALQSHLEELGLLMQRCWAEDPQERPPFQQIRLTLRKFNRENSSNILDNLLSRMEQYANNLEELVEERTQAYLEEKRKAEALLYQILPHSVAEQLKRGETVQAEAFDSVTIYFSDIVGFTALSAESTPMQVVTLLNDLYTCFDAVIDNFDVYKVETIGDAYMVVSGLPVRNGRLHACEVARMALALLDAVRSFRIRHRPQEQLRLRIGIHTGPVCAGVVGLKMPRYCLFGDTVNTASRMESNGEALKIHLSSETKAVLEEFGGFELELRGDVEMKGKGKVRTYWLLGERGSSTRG
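HEK293 cells stably expressing human Npr1 and cGMP GloSensor pGS-40F, loaded 2 h with 2% GloSensor reagent, given compound 30 min at room temperature. Luminescence read before and 20 min after 0.1 nM hNppA.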
The depositor's hits bear a star; ? = inconclusive; & = joins results of further samples; [ ] = remark or other dose. % is scaled to controls: 0 for no effect and ±100 for the full control effect; potency is read from the fitted curve at half-maximal effect. A portion of the library. The share of hits here may be higher or lower than overall.

item | SMILES | hNpr1 antagonist
1 | Cc1ccc(-c2ccc3nnc(CNC(=O)COc4ccc(F)cc4)n3n2)cc1C | 2.1%
2 | COCCNc1c(-c2noc(C)c2C(=O)Nc2ccc(OC)nc2)cnn1C | -0.9%[70.6 µM]
3 | COCC1CN(C)CC12CCN(S(=O)(=O)c1ccc(F)c(Cl)c1)CC2 (centres undefined) | -17.9%
4 | O=C(c1ccccc1)N1CCC2(CC1)CCN(CCc1ccccc1)c1ccccc1O2 | -5.7%
5 | COCc1noc([C@@H]2CN(Cc3cccc(Cl)c3F)C[C@H]2C(N)=O)n1 | -0.8%
6 | O=C(Nc1ccccc1F)c1ccc2c(c1)n(Cc1ccccc1)c(=O)c1ccnn12 | -13.2%
7 | CCCC1(CO)CCCN(Cc2nc(C)no2)C1 (centres undefined) | 4.3%
8 | CC(C)NC(=O)C[C@@H]1O[C@H](CNC(=O)NC(C)C)[C@@H](O)[C@H]1O | 3.7%[70.6 µM]
9 | CCCNC(=O)C1COC2(CCN(C(=O)c3ccccc3F)CC2)N1C(=O)c1cccc(F)c1 (centres undefined) | -1.8%
10 | CCCc1noc(-c2cccn3c(CNC(=O)c4cc(Cl)ccc4F)nnc23)n1 | -3.9%
11 | O=C(CCCc1c[nH]c2ccccc12)NC1CCc2n[nH]c(=O)n2CC1 (centres undefined) | -6.9%
12 | CCOC(=O)C1CCN(C(=O)C2COC3(CCC(C)CC3)N2C(=O)c2cccc(F)c2)CC1 (centres undefined) | 2.6%
13 | CCn1cc(S(=O)(=O)N2CCC3(CC2)CC(N2CCOCC2)CCO3)cn1 (centres undefined) | 13.0%
14 | CC1=C[C@@H](CN2CCN(c3ncccn3)CC2)[C@H](C(C)C)C[C@H]1Cc1nnc(-c2ccc(N(C)C)cc2)o1 | -20.5%
15 | O=C(Cc1cccnc1)N1CCC(Oc2ccccc2-c2nc(C3CC3)no2)C1 (centres undefined) | 3.8%
16 | COc1ccc(-c2cc(CC3(NCc4cccc(OC)c4)COC3)no2)cc1 | -0.2%[70.6 µM]
17 | O=C(c1ccncc1)N1CC2CCC(C1)N2Cc1ccc(-c2ccccc2)cc1 | ?
18 | Cc1noc(C)c1S(=O)(=O)N1CC(c2noc(C3CCCN3C)n2)C1 (centres undefined) | 1.9%
19 | COc1ccc(C(=O)N[C@H]2CC[C@]3(C)CCC([C@H](C)C(=O)N(C)Cc4cccnc4)[C@H](O)[C@H]3[C@@H]2C)cc1 (some centres undefined) | 3.0%
20 | Cc1cc(C[C@@H]2COC[C@@H]2NC(=O)c2ccc(CSc3ncccn3)o2)on1 | 0.5%
21 | COCCNc1ccc2nnc(-c3ccc(OC)cn3)n2n1 | 4.2%[70.6 µM]
22 | Cc1nc2scc(CC(=O)NCc3ccco3)n2c(=O)c1-c1cc(C)n(-c2ccccc2F)n1 | 1.6%
23 | CC(C(=O)NCCc1ccccc1)N1C(=O)COc2ccc(C(=O)COc3ccc(Cl)cc3)cc21 (centres undefined) | -3.9%
24 | Cc1cc(F)ccc1NC(=O)c1ccc2c(c1)n(Cc1cccc(F)c1)c(=O)c1ccnn12 | 2.9%
25 | CC(=O)Nc1ccc(C(=O)NC[C@@H]2C=C(C)[C@H](CC(=O)NC3CCCC3)C[C@H]2C(C)C)cc1 | -0.5%
26 | Cc1ccccc1C(=O)N1CCn2c(nn(-c3ccc(F)cc3)c2=O)C1 | 0.8%[70.6 µM]
27 | O=C(c1cccs1)N1CCC(c2nc(C3CCOCC3)no2)C1 (centres undefined) | 22.2%
28 | COCCC(=O)N1CCc2nc(N3CCN(C)CC3)sc2C1 | 1.7%
29 | COCC(=O)N[C@@H]1CN(C(=O)c2ccoc2)CC[C@@H]1c1nc(C)no1 | -13.3%
30 | COc1ccc(CN2CCNc3cnc(OCc4cccnc4)cc3C2)cn1 | ?
31 | COc1ccc(C(=O)N2CC[C@](C)(O)C(C)(C)C2)cc1Cl | -7.1%
32 | O=c1n(-c2ccc(F)cc2F)nc2n1CCN(CC1CC1)C2 | 15.7%[70.6 µM]
33 | O=C(Cc1ccc(F)cc1)N1CCc2nc(C3CC3)nc(-c3ccc(Cl)cc3)c2C1 | -22.6%
34 | CCc1nc(-c2c3n(c(=O)n(Cc4cc(F)ccc4F)c2=O)CCCCC3)no1 | -4.4%
35 | CC(C)OCCCNC(=O)C1Cn2cccc2C(=O)N1C (centres undefined) | 4.0%
36 | COc1ccc(C(=O)N2CCC[C@H]2c2nc(-c3ccc(OC)c(OC)c3)no2)cc1 | -1.4%
37 | Cc1n[nH]c(C)c1CCC(=O)NC1CCc2nn(C)c(=O)n2CC1 (centres undefined) | 6.9%
38 | Cc1cc(C(=O)N2CCc3nnc([C@@H]4C[C@@H](O)CN4C(C)C)n3CC2)nn1C | 2.4%
39 | COc1ccc(C)cc1NC(=O)N(C)CC1CCOCC1 | 4.0%
40 | Cc1cccc(C(=O)N2CCC3(CC2)CC(CC(=O)N2CCOCC2)CCO3)c1 (centres undefined) | -5.0%
41 | CN1C(=O)Cc2cc(C(=O)NC3CCCCCC3)ccc21 | 3.5%
42 | CC(c1ccon1)N(C)C(=O)c1ccc(OC2CCN(S(=O)(=O)N(C)C)CC2)cc1 (centres undefined) | -18.1%
43 | Cn1ccnc1CNC(=O)C[C@@H]1C[C@H]2O[C@H](CNCc3ccncc3F)[C@@H](O)[C@H]2O1 | 1.4%[70.6 µM]
44 | CN1C(=O)c2cccn2CC1C(=O)NC1CCCC1 (centres undefined) | -0.9%
45 | Cn1cc(CCCNC(=O)C2CC(=O)N(C3CC3)C2)cn1 (centres undefined) | -0.2%
46 | COC1C(=O)N(C2CCN(S(=O)(=O)c3c(C)noc3C)CC2)C12CCOCC2 (centres undefined) | -2.2%
47 | COc1ccc(CN2C(=O)COC[C@H]2C(=O)NCCc2c[nH]c3ccccc23)c(OC)c1 | 4.3%
48 | CN1C[C@H](O)C[C@H]1c1nnc2n1CCN(C(=O)c1cccs1)CC2 | -1.7%
49 | Cc1nc([C@@H]2CN(C(=O)c3cc(C4CC4)[nH]n3)C[C@H]2C(N)=O)n[nH]1 | -1.1%
50 | CC(C)c1ccc(CN2C[C@@H]3C(=O)N(CCc4ccccc4)C(=O)[C@@H]3C2)cc1 | ?

The list goes on.
item | SMILES | hNpr1 antagonist
51 | c1nnc(CC2CCNCC2)n1CC1CC1 | 10.2%
52 | CC1=C[C@@H](CNCc2ccc(F)cc2)[C@H](C(C)C)C[C@H]1Cc1nnc(C)o1 | -12.7%[70.6 µM]
53 | COc1ccc(C(=O)N2CCOC(Cc3cccc(C(F)(F)F)c3)C2)o1 (centres undefined) | -4.1%
54 | COCCN1C(=O)c2cccn2CC1CNC(=O)c1cc(C)nn1C (centres undefined) | -7.3%
55 | COC(=O)c1ccc(CN2C(=O)[C@@H]3C[C@@H](O)CN3C3(CN(CC(C)(C)C)C3)C2=O)cc1 | -1.1%[70.6 µM]
56 | Cc1nn(-c2ccccc2)nc1C(=O)N[C@H](C)c1onc(-c2ccc(F)cc2)c1C(=O)O | -0.9%
57 | Cc1ccc(CN(C(=O)c2ccco2)c2ccc(CC(=O)NCc3ccccc3)cc2)cc1 | -18.2%
58 | CCCNC(=O)Cc1ccc(N(Cc2cccc(F)c2)C(=O)c2ccco2)cc1 | -1.5%
59 | COc1ccc(C(=O)NC2CCN(c3cc(-c4ccc(Cl)cc4)[nH]n3)C2)cn1 (centres undefined) | -25.1%
60 | Cn1cccc1CN1CCC2(CC1)Cc1ccccc1NC2=O | 14.3%[70.6 µM]
61 | Cc1ccc(-c2noc([C@@H]3C[C@H](NS(=O)(=O)c4ccc(F)cc4)CN3C)n2)cc1 | -22.2%[70.6 µM]
62 | O=C(NC[C@H]1Cn2c(-c3ccc(Cl)cc3)cnc2CO1)C1CCCC1 | -12.8%[70.6 µM]
63 | O=C(Cn1nc2c(cc1=O)CCCCC2)Nc1cccc(N2CCCCS2(=O)=O)c1 | 0.6%
64 | CCCN(CC1CCOC1)C(=O)c1ccccc1Br (centres undefined) | 6.7%
65 | CN(C)Cc1nnc(C2CC(NC(=O)c3cc4ncccn4n3)C2)n1C (centres undefined) | 2.8%&0.7%
66 | COc1ccc(C(=O)N2CCC(N3C(=O)[C@H](OC)[C@@H]3c3ccncc3)CC2)cc1 | ?
67 | Cc1ccncc1C(=O)N1C[C@@H](Oc2ccccc2)C[C@H]1C(=O)N1CCCC1 | 0.6%
68 | O=C(CCC1CCN(C(=O)c2ccccc2)CC1)NCCN1CCCCC1 | -4.9%
69 | COc1ccccc1-c1cc2c(ccn2C)c(C(=O)NCCc2ccccn2)n1 | 1.3%[70.6 µM]
70 | Cc1ccc(O[C@H]2CCOC[C@H]2NC(=O)C2(Cn3ccnc3)CC2)cn1 | 2.5%
71 | CC1(C)C(=O)N(Cc2ccccc2)[C@H]2CN(CC3CCOCC3)C[C@H]2[S+]1(=O)[O-] | 5.5%[70.6 µM]
72 | COc1ccc2[nH]c3c(c2c1)CCN(C)C31CCN(C(=O)c2ccncc2)CC1 | 3.0%
73 | COc1ccc(CCC(=O)N2CC(F)(F)C[C@H]2c2nc(C)no2)cc1 | -4.7%
74 | C#CCN(C)CC[C@@H]1CC[C@H](O)[C@@H](C(=O)NCCOC)O1 | -2.2%[70.6 µM]
75 | COCCNC(=O)C1COC2(CCN(C(=O)c3ccc(OC)cc3)CC2)N1C(=O)c1ccccc1 (centres undefined) | 2.9%
76 | CC(=O)Nc1ncc(C(=O)N2CC[C@](C)(O)[C@@H](O)C2)s1 | 11.6%
77 | COCCOc1ccc2c(n1)CCN(C(=O)C1(c3ccc(OC)cc3)CC1)C2 | -1.3%
78 | COc1ccc(-c2noc(-c3nc(Cc4cccc(F)c4)no3)n2)cc1OC | 1.9%
79 | Cc1ccc2c(c1)N1C(=O)OC[C@@H]1CCN(Cc1ccccc1)C2 | 0.1%[70.6 µM]
80 | Cc1nn(C)c2nc(-c3ccccn3)nc(NCC(c3ccco3)N(C)C)c12 (centres undefined) | -1.3%
81 | CN(c1ccccc1)c1ccc2ncn(C3CC3)c(=O)c2n1 | 15.8µM*
82 | CC(C)n1c(C2CCN(C(=O)COc3ccc(F)cc3)CC2)nn(C)c1=O | 6.1%
83 | O=C(Cn1ccn2nc(-c3ccc(F)cc3)c(CO)c2c1=O)Nc1ccc(Br)cc1 | 5.9%
84 | O=C(CCC[C@H]1NC[C@@H]2C[C@H]1CN(Cc1ccccc1)C2)Nc1ccc2c(c1)OCCO2 | 0.6%
85 | COCCNC(=O)c1coc(CN2CCN(C/C=C/c3ccccc3)CC2)n1 | 0.0%
86 | CCC1CN(C(=O)c2cc(F)ccc2OC)CCC(=O)N1Cc1ccccc1 (centres undefined) | -0.3%
87 | Cc1ncc2n1C(=O)N(C1CCN(Cc3ccncc3)CC1)C2 | -1.6%[70.6 µM]
88 | Cc1ccc(C2Cn3nnc(C(=O)N4CCC(C(=O)NCC(C)c5ccccc5)CC4)c3CO2)cc1 (centres undefined) | -0.7%
89 | CCCCN(C)C(=O)CC1CCN(c2ccnc(OC)n2)CC1 | 11.2µM*
90 | O=C1NCCCCCCN(Cc2ccncc2)[C@@H]2CN(S(=O)(=O)c3cccnc3)CC[C@@H]12 | 5.5%
91 | NC(=O)c1ccc2c(c1)C1(CCN(CC3CC3)C1)CN2Cc1ccccc1 (centres undefined) | -4.5%[70.6 µM]
92 | COCCOC1CCOC2(CCN(C(=O)c3n[nH]c4ccccc34)CC2)C1 (centres undefined) | 15.8%
93 | COCCCNC(=O)N1CC[C@H]2C(=O)NCCCCCCN(Cc3ccncc3)[C@@H]2C1 | 1.5%
94 | O=C(NC1CCCCC1)N1CCCC(c2nn[nH]n2)C1 (centres undefined) | -3.0%
95 | O=C(c1cccc2cnccc12)N1CCC2(CC1)Nc1ccccc1NC2=O | -4.5%
96 | CCN1CCN(CCCN2CC3(CCN(Cc4ncc[nH]4)CC3)OC2=O)CC1 | 5.0%
97 | O=C(NC1CCCCC1)N[C@H]1[C@H](O)[C@@H](Sc2ccccc2)[C@@H]2OC[C@H]1O2 | 3.1%[70.6 µM]
98 | O=C(C1CCN(c2cnn(Cc3ccccc3)c(=O)c2)C1)N1CCc2ccccc2C1 (centres undefined) | -5.4%
99 | Cc1ccccc1C(CC(=O)N1CCSCC1)c1ccccc1 (centres undefined) | -5.6%
100 | COCCN1Cc2[nH]nc(-c3ccccc3)c2CC1=O | -15.5%[70.6 µM]

Numbers 76 through 77, reprinted for reference:
item | SMILES | hNpr1 antagonist
76 | CC(=O)Nc1ncc(C(=O)N2CC[C@](C)(O)[C@@H](O)C2)s1 | 11.6%
77 | COCCOc1ccc2c(n1)CCN(C(=O)C1(c3ccc(OC)cc3)CC1)C2 | -1.3%

(listing goes on)
item | SMILES | hNpr1 antagonist
101 | O=C1CCC2(CNC(=O)c3ccsc3)CCC=C2N1 (centres undefined) | 2.4%
102 | CCc1nc2c(=O)n(CC(=O)NCc3cccc(Cl)c3)nc(C)c2s1 | 0.5%
103 | O=C(NC1CCN(Cc2ccccc2)CC1)c1cc2c(s1)CN(C1CCCC1)C2 | -15.3%
104 | CN1C[C@H]2CNC[C@@]2(C(=O)NCc2ccccc2OCc2ccccc2)C1 | -0.6%
105 | O=C(NCCc1ccccc1)N1CCCCC1c1noc(COCC2CC2)n1 (centres undefined) | 0.5%
106 | CCOC(=O)c1ccc(NC(=O)Cn2c(N(C)Cc3ccccc3)nc(C)cc2=O)cc1 | 14.1µM*
107 | O=C(c1ccc(F)cc1F)N1CCCN(c2cc(-c3ccccc3)[nH]n2)CC1 | 0.0%
108 | CC(C)(C)CC(=O)Nc1cnc(-c2cccc(Cl)c2)nc1 | 3.98µM*
109 | COc1cc(OC)cc(-c2onc(C)c2C(=O)NCc2ccccc2C)c1 | -1.0%
110 | CCOc1ccc(CC(=O)N2CCC3(CC2)C(=O)N(C)c2ccccc23)cc1 | -1.8%
111 | COc1cc(Nc2nc(-c3ccccc3F)no2)cc(OC)c1OC | -12.6%
112 | COc1ccc(-c2noc([C@@H]3CCCN3C(=O)Cc3ccc(F)cc3)n2)cc1 | -11.6%
